Screening data as filed in PubChem.
AF4-AF9 inh: inhibitors of AF4 peptide binding to AF9, primary screen, biochemical, AlphaScreen, biotin-AF4 peptide, FLAG-AF9, single point | Protein AF-9 (Homo sapiens), P42568 | 350,000 compounds, 0.47% hits | AID 651704, 2012 | inhibition, % at 10 µM;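 active = every replicate reaching a set inhibition limit, whatever the replicate mean, cut at about 25% in these data; inconclusive = mean inhibition reaches that limit but some replicates miss it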;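 note: 0% = plate neutral control median and 100% = total signal loss; the record names both 10 and 1 µM as test concentration; the first replicate is given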
HNF4A DNA FP: change in binding of human HNF4A to DNA, primary screen, biochemical, fluorescence polarization, FITC-DNA | Hepatocyte nuclear factor 4-alpha (Homo sapiens), P41235 | 360,000 compounds, 0.3% hits | 1 h | activity change, % at 10 µM; in the data active = activity change above about 30%, passing the limit was not always enough;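 note: controls were the assay level and a saturating level of protein; the project sought stronger binding though the title names inhibitors; some compounds called inactive have numbers as strong as hits; positive values seem to mean higher polarization but the record does not say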
Target sequence (P41235 whole entry, looked up): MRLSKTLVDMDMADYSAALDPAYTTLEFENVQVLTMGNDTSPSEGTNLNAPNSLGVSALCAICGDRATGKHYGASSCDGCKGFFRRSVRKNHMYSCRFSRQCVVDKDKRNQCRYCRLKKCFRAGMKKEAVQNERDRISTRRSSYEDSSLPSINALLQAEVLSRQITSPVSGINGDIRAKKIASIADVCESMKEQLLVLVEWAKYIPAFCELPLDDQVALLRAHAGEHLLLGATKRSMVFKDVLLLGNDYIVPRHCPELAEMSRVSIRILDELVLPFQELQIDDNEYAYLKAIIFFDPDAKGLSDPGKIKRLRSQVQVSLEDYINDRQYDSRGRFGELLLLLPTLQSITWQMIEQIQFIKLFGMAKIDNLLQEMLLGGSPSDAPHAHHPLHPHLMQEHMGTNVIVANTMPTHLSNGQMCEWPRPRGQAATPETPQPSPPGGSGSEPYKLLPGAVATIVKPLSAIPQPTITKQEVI
FGF22 binding: binders of human FGF22 protein, primary screen, FGF22 synaptogenesis inhibitor project, biophysical, thermal shift, single point; Fibroblast growth factor 22 (Homo sapiens), Q9HCT0; recombinant FGF22 thermal shift, SYPRO orange fluorescence; percent of sucrose octasulfate shift, DMSO zero; calls only at 9.99 µM; 340,000 compounds, 1.5% hits; AID 651658, 2012;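 active = melting point raised past a set limit in the mean and every replicate; inconclusive = no clear call; three in four hits are not shown here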
Target sequence (Q9HCT0 whole entry, looked up): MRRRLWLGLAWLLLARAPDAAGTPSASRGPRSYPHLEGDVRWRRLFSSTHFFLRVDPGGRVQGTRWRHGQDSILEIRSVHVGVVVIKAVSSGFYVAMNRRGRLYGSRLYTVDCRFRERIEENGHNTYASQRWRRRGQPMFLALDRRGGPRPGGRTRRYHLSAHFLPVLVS
E coli growth: E. coli growth inhibition, primary screen, OD600 | Escherichia coli growth, 23 h; hits give low values | OD600 absorbance (concentration not given with the values) | 330,000 compounds, 0.21% hits;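 active = OD600 absorbance below the run mean of sample wells minus 3.6 SD, in any replicate, cut at about 0.56 in these data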;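 note: stock transfer was 300 nL into about 60 µL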
UCH37 inh: inhibitors of human UCH37 deubiquitinase, primary screen, biochemical, Ub-AMC cleavage, fluorescence; 330,000 compounds, 0.33% hits; AID 588478, 2011; inhibition, % (test concentration not listed); Ubiquitin carboxyl-terminal hydrolase isozyme L5 (Homo sapiens), Q9Y5K5; purified proteasome/UCH37;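 active = mean of two replicates above 20%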;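 note: 0% = compound-free wells with enzyme and 100% = wells lacking proteasome; stock transfer was 100 nL into about 20 µL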
Target sequence (Q9Y5K5 whole entry, looked up): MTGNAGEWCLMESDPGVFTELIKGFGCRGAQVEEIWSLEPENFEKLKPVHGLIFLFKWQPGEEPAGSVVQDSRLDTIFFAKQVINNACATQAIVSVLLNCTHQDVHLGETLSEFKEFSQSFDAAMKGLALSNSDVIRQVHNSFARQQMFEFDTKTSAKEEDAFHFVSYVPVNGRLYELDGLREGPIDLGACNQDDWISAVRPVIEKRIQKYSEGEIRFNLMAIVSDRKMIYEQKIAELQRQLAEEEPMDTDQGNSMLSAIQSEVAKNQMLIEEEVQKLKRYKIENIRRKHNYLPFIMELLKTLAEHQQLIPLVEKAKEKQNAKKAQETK
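Assay system: Proteasome-bound UCH37. Buffer or medium: pH 7.4 Tris-HCl (50 mM) with ovalbumin, ATP-MgCl2, DTT. Incubation: 30 min preincubation with enzyme, 25 min cleavage at room temperature. Measured by: fluorescence, ex 355 nm, em 460 nm. Read-out basis: percent inhibition. Control set: wells without proteasome as full block, compound-free enzyme plus substrate as uninhibited.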
RanGTP-Impb inh: inhibitors of RanGTP-importin-beta interaction, primary screen, biochemical, FRET, CFP-Ran, YFP-importin-beta, homogeneous; Ran GTPase (GTP-bound) - importin-beta complex; cell-free CFP-Ran/YFP-importin-beta FRET ratio; inhibition, % (no concentration beside the values); 300,000 compounds, 1.1% hits; AID 2216, 2009;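 active = most replicates above 15%; inconclusive = exactly half above 15%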;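 note: 0% = DMSO wells and 100% = Ran loaded with GDP instead of GTP; wells of about 40 µL received 100 nL stock; the first replicate is given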
Vif A3G: inhibitors of Vif binding to APOBEC3G peptide, primary screen, biochemical, TR-FRET, GST-Vif 1-94, biotin-A3G peptide, dose response retest (AID 1117319); Virion infectivity factor (Human immunodeficiency virus type 1 group M subtype B (isolate …; TR-FRET GST-Vif / biotin-A3G peptide binding; higher % means a stronger effect; test concentration not given here; strong numbers were not always called active; inhibition, %, or IC50 in µM where a hit was titrated; 260,000 compounds, 0.57% hits;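 active = above the screen mean plus three standard deviations and confirmed in dose response; inconclusive = results disagree or hit not tested in dose response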;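 note: Vif residues 1-94 fused to GST binding biotinylated APOBEC3G peptide 110-148; 0% = full assay without inhibitor and 100% = GST in place of GST-Vif; retest series ran down from 100 µM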
Active calls of the source: *; i = inactive; ? = inconclusive; / = no result given; & = joins results of further samples. This is a subset; count on the stated rates, not on these rows.

The line under a structure holds: FGF22 binding, RanGTP-Impb inh, E coli growth, Vif A3G, UCH37 inh, AF4-AF9 inh, HNF4A DNA FP
(1) O=C(CC(Nc1ccc(Cl)cc1)C(=O)O)c1ccccc1 (stereo not drawn)
→ /, 8.4, 0.716, -4.7%, -2.2, /, 2.3
(2) CCC(C)c1ccc(S(=O)(=O)N2CCN3CCCC3C2)cc1 (stereo not drawn)
→ i, 0.0, 0.638, /, 0.3, 3.8, 2.3
(3) CCCC(=O)Nc1ccc(N2CCCCC2)cc1
→ /, -1.9, 0.775, 17.2%, 1.4, /, 8.1
(4) C=C(C)COc1ccc2c(CC)cc(=O)oc2c1
→ i, 2.2, 0.667, -0.7%, -26.6, 0.2, -1.1
(5) CC(Oc1ccc(-c2ccccc2)c(F)c1)c1ccn(S(=O)(=O)c2ccc(F)cc2)n1 (stereo not drawn)
→ /, 0.8, 0.747, 6.2%, 1.5, /, -5.7
(6) C/C=C(\C)c1nnc(NC(=O)OCC)s1
→ /, -0.6, 0.702, ?, 0.8, /, -3.7
(7) CCCCNC(=O)C(=O)Nc1cc2c3c(c1)CCC(=O)N3CCC2
→ i, -1.4, 0.704, /, 1.0, 1.8, -2.1
(8) Cc1ccccc1S(=O)(=O)Cc1ccc(C(=O)NC(C)c2ccccc2)o1 (stereo not drawn)
→ i, 5.1, 0.67, 7.7%, 3.2, -0.2, -1.5
(9) Cc1cc(C)n2nc(-c3cccc(Br)c3)cc2n1
→ i, 0.3, 0.686, /, -11.8, -3.0, -2.4
(10) CCCC(CCC)c1nnc(NC(=O)c2ccco2)s1
→ i, 4.0, 0.651, /, 5.4, 0.5, -2.3
(11) CCOc1cccc(Cc2c[nH]c(=O)[nH]c2=O)c1
→ i, /, /, /, /, -0.7, 1.8
(12) CCOc1ccccc1OCC(=O)Nc1ccc(Cl)cc1Cl
→ /, ?, 0.737, 3.8%, 0.4, /, 1.2
(13) Cc1cc(C)cc(C(=O)N2CCC(C(N)=O)CC2)c1
→ /, -0.9, 0.722, 66.6%, 1.7, /, 0.6
(14) CCOc1cc(CNCCc2ccccc2)ccc1OCC(=O)NC(C)(C)C
→ /, 2.2, 0.689, 18.2%, 3.1, /, 2.0
(15) O=C(O)COCC(=O)Nc1ccccc1-c1ccccc1
→ i, 3.0, 0.685, 8.7%, 2.2, -0.9, -0.1
(16) O=C(Nc1cc(Cl)ccc1Oc1ccccc1)c1ccccc1F
→ /, ?, 0.684, 11.7%, 5.1, /, 3.7
(17) COc1ccc([C@H]2C[C@@H](n3cc(C4CC4)nn3)[C@H](O)CN2Cc2cccs2)cc1
→ i, /, /, 4.4%, /, 0.8, 0.7
(18) COc1ccc(NC(=O)COc2cccc3c2CCN(Cc2cccnc2)C3=O)cc1
→ i, 0.0, 0.705, /, 4.4, 3.5, 0.0
(19) CCN(c1ccc(Cl)cc1)S(=O)(=O)c1nnc(NC(=O)C(C)C)s1
→ i, 3.0, 0.685, 3.1%, 0.4, -1.6, 1.4
(20) O=S(=O)(NCc1ccccn1)c1ccccn1
→ i, 0.2, 0.712, /, 1.7, 2.5, -3.6
(21) CN(Cc1ccco1)C(=O)CN1C(=O)NC2(CCCCC2)C1=O
→ i, /, 0.704, 8.0%, -2.5, 1.2, -4.8
(22) COc1ccc(NC(=O)COC(=O)c2ccc([N+](=O)[O-])o2)cc1Cl
→ i, /, 0.623, /, 5.9, -3.8, 0.5
(23) CCN1C(=O)/C(=c2\sc3nc(=O)c(Cc4ccccc4)nn3c2=O)c2ccccc21
→ i, 1.1, /, /, /, 0.6, 3.5
(24) COc1ccc(NC(=O)COc2ccc3c(C)cc(=O)oc3c2)cc1S(=O)(=O)N1CCCCC1
→ i, 1.7, 0.684, -5.4%, -70.7, -0.6, -0.3
(25) CC(C)CN1C(=O)c2ccc(C(=O)Nc3c[nH]c(=O)[nH]c3=O)cc2C1=O
→ i, -0.5, 0.677, 3.6%, -0.8, -18.8, 4.6
(26) Cc1cccc(C(=O)NC2CCN(C(=O)Nc3ccccc3C)CC2)c1
→ i, 2.4, 0.672, 19.6%, 3.2, -9.7, -0.1
(27) CCSc1nc(=S)n(CC)c(C)c1C(C)=O
→ /, -0.3, 0.736, 14.3%, 4.2, /, 4.5
(28) CCCCCCCCN1C(=O)[C@H](CC(=O)NCc2ccc(OC)c(OC)c2)C[C@@]2(C(=O)OCC)CCC=C12
→ i, /, /, /, /, -3.7, 2.3
(29) CCc1noc(C)c1C(=O)OC(C)C(=O)Nc1ccccc1OC (stereo not drawn)
→ i, -2.6, 0.678, 3.9%, -0.1, -10.5, 1.2
(30) COc1ccc(C2/C(=C(/O)c3ccc(C)cc3)C(=O)C(=O)N2C)cc1 (stereo not drawn)
→ /, 7.9, /, -2.7%, 3.9, /, -2.5
(31) CCN(CC)c1ccc(/C=N/NC(=O)C2CC2)cc1
→ i, 1.2, /, -4.9%, /, 5.3, 1.1
(32) Cc1nnc(SCC(=O)Nc2ccc(Cl)cn2)[nH]c1=O
→ /, 3.8, 0.702, 6.2%, 0.0, /, 0.0
(33) O=C(O)/C(=C/c1ccco1)NC(=O)c1ccc(Br)o1
→ i, 1.4, 0.68, /, 5.9, 0.1, -5.6
(34) CCc1nc2sc3c(c2c(=O)o1)CCCC3
→ /, 1.1, 0.709, 12.4%, 2.2, /, -2.4
(35) CN1CCN(CCNC(=O)c2cn(Cc3ccccc3F)nn2)CC1
→ i, 0.5, 0.679, /, 7.7, -4.3, -3.9
(36) COc1cccc(/C=C2\SC(=O)N(CCC(=O)NC3CCS(=O)(=O)C3)C2=O)c1 (stereo not drawn)
→ i, -0.5, 0.674, 2.5%, -0.6, -0.1, -1.6
(37) O=C(NNC(=O)C1CC(=O)N(Cc2ccccc2)C1)c1ccc(Br)cc1 (stereo not drawn)
→ i, -0.5, 0.69, /, 0.1, -0.7, -1.1
(38) CCOC(=O)c1cncc(C(=O)O)c1
→ /, 2.1, 0.708, 12.7%, 1.8, /, 1.1
(39) COc1cc(CCCN2C(N)=NC[C@@H]2Cc2ccccc2)cc(OC)c1OC
→ /, 3.9, /, -5.1%, 1.8, /, -1.6
(40) CC(C)(C)c1ccc(-c2nnc(SCC(=O)O)n2N)cc1
→ /, 2.3, 0.669, 29.2%, 2.4, /, 2.6
(41) CCOc1ccc(C(=O)NCC(=O)N2CCCCCCC2)cc1
→ i, /, 0.705, 6.4%, 1.2, 2.6, 1.2
(42) CCOn1c(=O)c(-c2ccc(C)cc2)[n+]([O-])c2ccccc21
→ i, 5.5, 0.684, -0.9%, 2.6, 5.7, 0.3
(43) CCOc1ccc(NC(=O)CN(C)C(=O)C2CSC3(C)CCC(=O)N23)cc1OCC (stereo not drawn)
→ i, /, 0.673, -3.7%, 3.6, 3.1, -0.7
(44) COCCNC(=O)C(=O)NCCN1CCOCC1
→ /, -1.8, 0.78, -1.2%, -1.1, /, -0.6
(45) COC(=O)[C@H](C)NC(=O)Nc1ccc(OC)c(OC)c1
→ /, 1.9, 0.76, -0.2%, -3.6, /, -1.2
(46) CC1CN(C(=O)/C=C/c2cccc([N+](=O)[O-])c2)CC(C)O1 (stereo not drawn)
→ /, -1.8, 0.751, -0.9%, 1.8, /, 4.3
(47) Nc1nc(SCC(=O)Nc2ncc(C(F)(F)F)cc2Cl)n[nH]1
→ i, -4.2, 0.708, -0.9%, 4.7, 0.1, -0.3
(48) CCc1nc(SCc2ccccn2)[nH]c(=O)c1C
→ /, -0.5, 0.694, /, 0.0, -2.3, -1.6
(49) COCCCNC(=O)C(=O)NC1CCCCCC1
→ i, -5.6, 0.699, -3.7%, -0.8, 2.2, -1.4
(50) CCCCOc1cc(=O)[nH]c(=O)[nH]1
→ /, -3.6, 0.69, ?, 4.0, /, -0.6
(51) C[C@H](CO)N1C[C@H](C)[C@@H](CN(C)CC2CC2)Oc2c(NC(=O)C3CC3)cccc2C1=O
→ i, /, /, /, /, -12.5&-0.8, 0.5
(52) C#Cc1ccc(CN2CCN(CCc3ccccc3)C(CCO)C2)cc1 (stereo not drawn)
→ i, -1.8, 0.704, /, 2.2, 2.9, 4.0
(53) COC(=O)c1sc2nc(CN3CCOCC3)nc(N3CCOCC3)c2c1C
→ /, 8.0, 0.753, -1.0%, 4.9, /, 0.0
(54) Cc1ccccc1NC(=O)C(=Cc1ccc(C(=O)O)cc1)C(=O)Nc1ccccc1C
→ i, 0.8, 0.731, -8.1%, 1.1, -0.3, 0.4
(55) Cc1cc(NS(=O)(=O)c2ccc(NC(=O)COc3ccc(Br)cc3)cc2)nc(C)n1
→ i, 2.9, 0.641, /, 4.1, -1.7, -0.6
(56) CC(C)[C@H](NC(=O)[C@@H]1Cc2ccccc2CN1C(=O)OC(C)(C)C)C(=O)NCC1CCCO1 (stereo partly drawn)
→ i, 1.9, 0.666, 6.2%, 3.5, -4.0, 6.3
(57) CN(C(=O)CN1CCN(c2cc(-c3ccc(OCc4ccccc4)cc3)ncn2)CC1)c1ccccc1
→ i, /, /, /, /, 7.0, -0.6
(58) CC(C)n1c(O)c(N=NC(=O)CNC(=O)c2cccnc2)c2ccccc21
→ i, -0.4, 0.637, 3.5%, 6.3, -4.7, 4.2
(59) Cc1ccccc1C(=O)OC1OC(=O)C(Cl)=C1Nc1ccc(C(=O)O)cc1 (stereo not drawn)
→ i, -1.7, 0.633, 0.9%, 1.5, -2.5, 0.8
(60) CCOC(=O)N1CCN(C(=O)/C=C/c2c(C)nn(-c3ccc(F)cc3)c2Cl)CC1
→ /, 2.4, /, -8.3%, /, 0.2, 3.7

Carrying on.
The line under a structure holds: FGF22 binding, RanGTP-Impb inh, E coli growth, Vif A3G, UCH37 inh, AF4-AF9 inh, HNF4A DNA FP
(61) CCCn1c2ccc(F)cc2c2nnc(SCCN3CCOCC3)nc21
→ i, -2.9, 0.671, -0.1%, 10.0, 0.4, 0.7
(62) CCOc1ncccc1C(=O)OCC(=O)NCCc1ccc(S(N)(=O)=O)cc1
→ i, /, 0.655, -2.8%, 1.4, -6.5, -1.5
(63) Cn1nnc(NC(=S)NC(=O)/C=C/c2ccco2)n1
→ i, 1.7, 0.648, /, 4.4, -2.4, 0.7
(64) CC(=O)Cn1ncc(N(C)Cc2ccccc2)c(Cl)c1=O
→ i, 2.6, 0.647, /, 3.7, 9.4, 0.3
(65) Cc1[nH]c2ccccc2c1C(=O)C(=O)N1c2ccccc2CC1C (stereo not drawn)
→ i, -1.4, 0.685, /, 2.5, 5.7, -2.7
(66) CC1(C(=O)NS(=O)(=O)C2CC2)CCCN(C(=O)CSc2ccccc2)C1 (stereo not drawn)
→ i, /, /, /, /, 0.0, 1.1
(67) COc1ccc(S(N)(=O)=O)cc1C(=O)NNC(=O)C1COc2ccccc2O1 (stereo not drawn)
→ i, /, 0.713, -1.8%, 4.0, -8.7, 3.1
(68) CCOC(=O)CCP(=O)(O)C(O)(c1ccccc1)c1ccccc1
→ /, -1.0, 0.719, 1.5%, 1.3, /, -0.8
